# Beta2AR agonist – agonists of human beta-2 adrenergic receptor inducing internalization | 340,000 compounds, 0.43% hits | Am2.2-beta2AR cells, FAP receptor internalization, flow cytometry; reference of the scale not given here | response, % (test concentration not listed) | P07550 | AID 504454;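 active means response above a set limit, near 3 SD of response in nonfluorescent compounds, cut at about 42% in these data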;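 further: stock transfer was 100 nL into about 11 µL; a reference agonist was the positive control; negative values mostly stem from fluorescent compounds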
# Target sequence (P07550 whole entry, looked up): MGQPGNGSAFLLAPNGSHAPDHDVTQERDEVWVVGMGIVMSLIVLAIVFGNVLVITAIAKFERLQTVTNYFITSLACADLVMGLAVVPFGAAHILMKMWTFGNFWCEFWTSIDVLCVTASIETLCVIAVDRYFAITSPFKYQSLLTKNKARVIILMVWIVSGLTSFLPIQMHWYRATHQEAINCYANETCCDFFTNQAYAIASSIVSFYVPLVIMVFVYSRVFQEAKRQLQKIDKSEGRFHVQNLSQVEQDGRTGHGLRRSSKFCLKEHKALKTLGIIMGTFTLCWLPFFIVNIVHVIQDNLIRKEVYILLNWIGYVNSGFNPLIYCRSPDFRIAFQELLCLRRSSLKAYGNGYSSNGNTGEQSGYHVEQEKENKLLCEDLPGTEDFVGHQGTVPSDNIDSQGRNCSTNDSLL
# UCH37 DUB inh – inhibitors of human deubiquitinating enzyme UCH37; Q9Y5K5; purified proteasome/UCH37, Ub-AMC cleavage fluorescence; inhibition, % (test concentration not listed); 330,000 compounds, 0.33% hits; AID 588478;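 active means mean of two replicates above 20%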;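 further: 0% = compound-free wells with enzyme and 100% = wells lacking proteasome; stock transfer was 100 nL into about 20 µL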
# Target sequence (Q9Y5K5 whole entry, looked up): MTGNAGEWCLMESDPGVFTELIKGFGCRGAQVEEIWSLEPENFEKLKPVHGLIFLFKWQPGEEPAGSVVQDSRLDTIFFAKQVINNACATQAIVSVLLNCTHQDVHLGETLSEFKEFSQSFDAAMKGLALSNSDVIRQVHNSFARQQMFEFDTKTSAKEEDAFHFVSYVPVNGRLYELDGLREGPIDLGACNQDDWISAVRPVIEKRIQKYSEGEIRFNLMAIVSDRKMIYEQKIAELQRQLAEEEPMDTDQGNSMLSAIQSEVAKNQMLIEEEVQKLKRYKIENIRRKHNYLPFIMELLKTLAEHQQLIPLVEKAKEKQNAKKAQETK
#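 System: Proteasome-associated human UCH37 deubiquitinase; Input: 0.15 nM proteasome in added enzyme buffer; Also added: Ub-AMC substrate from 1 µM stock; Incubation: 30 min compound-proteasome preincubation then 25 min substrate reaction, room temperature; Detection: fluorescence, ex 355 nm, em 460 nm; Read-out: % inhibition of Ub-AMC cleavage fluorescence; Benchmarks: no-proteasome and no-compound wells.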
# An asterisk follows results filed as active; i = inactive.
# Sample of the layout, 2 compounds:
SMILES,Beta2AR agonist,UCH37 DUB inh
CCOc1ncccc1C(=O)Nc1ccc2c(c1)OCCCO2,0,3.1
COc1cccc2c1C(CCCC(=O)O)CCC2 (stereo not given),1,0.6

# Results, repeating the preview:
SMILES,Beta2AR agonist,UCH37 DUB inh
CCOc1ncccc1C(=O)Nc1ccc2c(c1)OCCCO2,0,3.1
COc1cccc2c1C(CCCC(=O)O)CCC2 (stereo not given),1,0.6
O=S(=O)(c1ccccc1)c1nc(-c2ccc(Cl)cc2)oc1NCCCN1CCOCC1,10,-4.5
COCCn1c(C)cc(C(=O)COC(=O)Cc2n[nH]c(=O)c3ccccc23)c1C,3,2.2
CN(Cc1cc(Cl)cc(Cl)c1O)Cc1c(O)ccc2ccccc12,5,-2.1
O=C(CC(O)c1ccncc1)c1ccccc1O (stereo not given),-1,3.4
Cc1c(Cl)cccc1NC(=O)CNC(=O)CCCc1nc2ccccc2c(=O)[nH]1,-2,0.1
COc1ccc(CCn2c(=O)c3cccnc3n(Cc3ccc([N+](=O)[O-])cc3)c2=O)cc1OC,1,-0.1
O=C(C1CCN(c2nnc(N3CCCC3=O)s2)CC1)N1CCN(Cc2ccc3c(c2)OCO3)CC1,-3,-2.1
CCC(C)Sc1cccc(-c2nc3cnccn3c2NC2CCCCC2)c1 (stereo not given),-9,-138
CN(CCc1ccccc1)C(=O)c1cccc(NC(=O)Cc2cccc(NC(=O)C3CCCN(C(=O)C4CC4)C3)c2)c1 (stereo not given),-18,3.9
Cc1ccc(S(=O)(=O)N(C)C)cc1NC(=O)CSc1nc2ncc(Cl)cc2[nH]1,2,2.7
c1cc(CNCCNCc2ccncc2)ccn1,6,-4.9
Cc1nn(-c2ccccc2)c2c1C(c1ccc(Br)s1)C(C#N)=C(N)O2 (stereo not given),18,2.1
CCCOc1ccc(C(F)(F)F)cc1NS(=O)(=O)c1ccc(Cl)nc1,3,1.5
COc1cccc(-c2c(C(=O)O)cc(O)c3ccc(OC)cc23)c1,-1,-8.6
O=C(COC(=O)c1ccccc1)Nc1cccc(S(=O)(=O)N2CCCCC2)c1,2,1.8
CCN(C[C@H]1N[C@@](C)(C(=O)OC)[C@H]2C(=O)N(C)C(=O)[C@@H]12)C(C)=O,1,5.6
CC(C)c1ccc(S(=O)(=O)Nc2ccc(-n3cnnn3)cc2)cc1,1,3.3
CC(=O)Nc1ccc(C=NNC(=O)C2CC2)cc1,-6,4.2
N#CC1C(=O)NC(c2ccccc2)=CC1c1ccccc1 (stereo not given),-3,-14
CCOc1ncccc1C(=O)Nc1cc(S(=O)(=O)N2CCCCCC2)ccc1OC,-3,-3.6
CC(=O)N(C(C)=O)c1ncn(C)c1S(=O)(=O)Nc1ccccc1,0,4.9
CCCn1cnc2c(SCc3ccccn3)nc(N)nc21,-10,1.5
CC1CCC(NC(=O)c2cccn2C)CC1 (stereo not given),-4,4.1
# More records.
SMILES,Beta2AR agonist,UCH37 DUB inh
Cc1cc(C)n2c(SC(C)C(=O)NC3(C#N)CCCCC3)nnc2n1 (stereo not given),-5,-8.6
CCN(C(=O)COC(=O)C1CC1C)c1c(N)n(Cc2ccccc2)c(=O)[nH]c1=O (stereo not given),-4,0.6
O=C(O)c1ccc(S(=O)(=O)c2ccccc2)s1,0,0.0
CCN(CC(=O)Nc1c(F)cccc1F)C(=O)CCCOc1ccccc1,0,0.7
O=C(CNc1ccc(Br)cc1)NC(=O)NC1CCCCC1,-3,0.3
C[C@H](CO)N1C[C@H](C)[C@@H](CN(C)S(C)(=O)=O)Oc2c(NC(=O)Nc3ccc(C(F)(F)F)cc3)cccc2C1=O,2,4.5
Cc1ccc(C2(C)NC(=O)N(CC(=O)NC3CCCCC3)C2=O)cc1 (stereo not given),-4,4.6
Cc1ccc(S(=O)(=O)N2CCN(C(=O)COC(=O)/C=C/c3ccc(OC(F)F)cc3)CC2)cc1,2,3.7
Cc1ccc(C(=O)Nc2ccccc2N2CCCCC2)cc1S(=O)(=O)N1CCOCC1,13,3.7
Cc1ccc(O)c(CN(C)Cc2cc(C)ccc2O)c1,8,4.2
Nc1c(C(=O)NCC2CCCO2)sc2nc3c(c(-c4ccco4)c12)CC/C3=C\c1ccco1 (stereo not given),-62,8.4
S=C(c1ccc2c(c1)OCO2)N1CCN(c2cccc(Cl)c2)CC1,-8,4.7
COC(=O)c1ccccc1S(=O)(=O)N1CCC(C(=O)Nc2ccccc2N2CCOCC2)CC1,3,0.0
O=C(CN1CCN(S(=O)(=O)c2ccccc2Cl)CC1)NCC1(N2CCOCC2)CCCCC1,-1,0.1
O=C(COC(=O)c1ccc(O)cc1O)NC(=O)Cc1ccccc1,3,0.3
C[C@H]1CN([C@@H](C)CO)C(=O)Cc2cc(NS(=O)(=O)c3ccc(Cl)cc3)ccc2O[C@@H]1CN(C)C(=O)Nc1cccc2ccccc12,2,2.6
Cc1ccc(C2(c3ccccc3)NC(=O)N(CC(=O)N3CC(=O)Nc4ccccc43)C2=O)cc1C (stereo not given),6,1.0
CCOC(=O)C1=C(C)N(C[C@@H]2CC[C@@H](Cc3ccc4cc(OC)ccc4c3)O2)C(=O)NC1c1ccccc1 (stereo not given in full),5,-0.5
OCC(O)C(O)C(O)c1cnn(-c2ccccc2)n1 (stereo not given),-10,-0.2
Cc1ccc(C(=O)C=Cc2cccc(C)c2)cc1,8,1.8
O=C(Cc1ccc(NC(=O)C2CCCN(C(=O)C3CCC3)C2)cc1)Nc1cccc(C(=O)N2CCCC2)c1 (stereo not given),-1,4.5
CCOC(=O)c1c(C)[nH]c(-c2csc(N)n2)c1C,-2,3.1
CCCCN1CC[C@@H]2C=CC[C@H](C(=O)OC)[C@@H]2C1=O,-6,1.5
O=C(Cn1cnc2c(NCc3ccccc3)ncnc21)NCCN1CCOCC1,5,1.5
O=C(OCc1nnc(-c2ccc([N+](=O)[O-])cc2)o1)C1CCN(C(=O)c2ccc(Cl)cc2)CC1,-4,1.8
# (next part)
SMILES,Beta2AR agonist,UCH37 DUB inh
NC(=O)COC(=O)[C@H](Cc1ccccc1)NS(=O)(=O)c1ccc2c(c1)OCCO2,-1,2.0
CCc1ccc(NC(=O)C(C)OC(=O)Cc2cc(OC)c(OC)c(OC)c2)cc1 (stereo not given),0,-2.8
Nc1nc(SCC(=O)N2N=C3/C(=C\c4ccco4)CCCC3C2c2ccco2)n[nH]1 (stereo not given),6,2.9
CCN(C(=O)COC(=O)CCc1ccc(OC)cc1)c1c(N)n(Cc2ccccc2)c(=O)[nH]c1=O,-2,1.9
CN1CCc2c(sc3c2c(=O)n(-c2ccccc2)c2nnc(SCc4ccc(F)cc4)n32)C1,-3,4.4
COC(=O)C1=C(C(=O)OC)[C@]2([C@@H]3CC=CCN[C@@H](Cc4ccccc4)C(=O)N3Cc3ccccc3)C=C[C@H]1O2,2,3.2
OC[C@@H]1[C@@H](c2ccc(Cl)cc2)C(c2ccccc2)=NN1c1ccccc1,5,i
Cc1c(NS(=O)(=O)c2cc(C(=O)Nc3ccc(F)cc3Cl)ccc2Cl)c(=O)n(-c2ccccc2)n1C,-6,-3.7
COc1ccc(-c2nn(-c3ccccc3)cc2/C=C/C(=O)N(C)CC(=O)Nc2cccc(F)c2)cc1OC,13,-55
CCNc1ncnc2[nH]ncc12,3,1.2
Cc1ccc(NC(=O)COC(=O)c2ccc(-n3cccn3)cc2)cc1C,-8,3.4
CCc1c(Cl)nc(N)nc1Nc1ccccc1Cl,-7,4.8
CN(C)c1cccc(C(=O)OCC(=O)c2ccc[nH]2)c1,12,-0.5
COc1cccc(C(=O)NNC(=O)c2ccc3ccccc3c2)c1,-8,4.5
CC(C)c1ccc(NC(=O)c2n[nH]c(=O)c3ccccc23)cc1,-1,-3.8
O=C(OCC(=O)N1CCN(S(=O)(=O)c2ccc(Cl)cc2)CC1)C1CC1,2,3.4
Cc1ccc(S(=O)(=O)N2CCCCC2)cc1NC(=O)C1=NN(c2ccccc2)C(=O)CC1,4,0.9
CC(C)=CCC/C(C)=C/CNC(=O)C[C@H]1C[C@H](C(=O)N2CCCCC2)[C@@]2(C)c3[nH]c4ccc(Cl)cc4c3CCN2C1=O,-2,1.5
CCOC(=O)c1c(NC(=O)CSc2nnc(-c3ccncc3)n2Cc2ccco2)sc(C(C)=O)c1C,-7,1.7
CCN(CC(=O)NCc1cccs1)C(=O)COc1ccc(C(N)=O)cc1,1,4.9
O=C(COC(=O)c1ccncc1)Nc1cc(S(=O)(=O)N2CCOCC2)ccc1Cl,-2,6.4
CC(C)n1c(=O)[nH]c(=O)n1C(C)C,-3,0.5
O=C(O)C1CSC(c2ccc(O)c([N+](=O)[O-])c2)N1 (stereo not given),-3,8.4
Cc1ccc(NC(=O)COC(=O)Cn2c(C)csc2=O)cc1S(=O)(=O)N1CCOCC1,4,-0.4
COc1ccc(Cl)cc1S(=O)(=O)N1CCN(C(=O)c2cc(OC)c(OC)c(OC)c2)CC1,-1,4.4
CC(=O)Nc1ccc(NC(=O)CCc2c(C)noc2C)cc1,-8,3.8
COc1ccc(C(=O)Nc2ccc(N3CCOCC3)cc2)cc1S(=O)(=O)N1CCOCC1,0,5.3
CC1=CC(=O)CC(C)(C)[C@@]1(O)/C=C/[C@@H](C)O[C@@H]1O[C@H](CO)[C@@H](O)[C@H](O)[C@H]1O,15,1.2
O=C(CCNS(=O)(=O)c1ccc(OC(F)(F)F)cc1)N1CCCC1,-4,1.7
CCN(C(=O)COC(=O)/C=C/c1ccc(C)o1)c1c(N)n(Cc2ccccc2)c(=O)[nH]c1=O,1,6.4

# 20 entries from above, arranged by count of non-hydrogen atoms, largest number first:
SMILES,Beta2AR agonist,UCH37 DUB inh
CC(C)=CCC/C(C)=C/CNC(=O)C[C@H]1C[C@H](C(=O)N2CCCCC2)[C@@]2(C)c3[nH]c4ccc(Cl)cc4c3CCN2C1=O,-2,1.5
COC(=O)C1=C(C(=O)OC)[C@]2([C@@H]3CC=CCN[C@@H](Cc4ccccc4)C(=O)N3Cc3ccccc3)C=C[C@H]1O2,2,3.2
COc1ccc(-c2nn(-c3ccccc3)cc2/C=C/C(=O)N(C)CC(=O)Nc2cccc(F)c2)cc1OC,13,-55
Cc1c(NS(=O)(=O)c2cc(C(=O)Nc3ccc(F)cc3Cl)ccc2Cl)c(=O)n(-c2ccccc2)n1C,-6,-3.7
CCN(C(=O)COC(=O)CCc1ccc(OC)cc1)c1c(N)n(Cc2ccccc2)c(=O)[nH]c1=O,-2,1.9
CCN(C(=O)COC(=O)/C=C/c1ccc(C)o1)c1c(N)n(Cc2ccccc2)c(=O)[nH]c1=O,1,6.4
Cc1ccc(S(=O)(=O)N2CCCCC2)cc1NC(=O)C1=NN(c2ccccc2)C(=O)CC1,4,0.9
Cc1ccc(NC(=O)COC(=O)Cn2c(C)csc2=O)cc1S(=O)(=O)N1CCOCC1,4,-0.4
Nc1nc(SCC(=O)N2N=C3/C(=C\c4ccco4)CCCC3C2c2ccco2)n[nH]1 (stereo not given),6,2.9
O=C(COC(=O)c1ccncc1)Nc1cc(S(=O)(=O)N2CCOCC2)ccc1Cl,-2,6.4
CC1=CC(=O)CC(C)(C)[C@@]1(O)/C=C/[C@@H](C)O[C@@H]1O[C@H](CO)[C@@H](O)[C@H](O)[C@H]1O,15,1.2
OC[C@@H]1[C@@H](c2ccc(Cl)cc2)C(c2ccccc2)=NN1c1ccccc1,5,i
O=C(OCC(=O)N1CCN(S(=O)(=O)c2ccc(Cl)cc2)CC1)C1CC1,2,3.4
O=C(CCNS(=O)(=O)c1ccc(OC(F)(F)F)cc1)N1CCCC1,-4,1.7
CC(C)c1ccc(NC(=O)c2n[nH]c(=O)c3ccccc23)cc1,-1,-3.8
CC(=O)Nc1ccc(NC(=O)CCc2c(C)noc2C)cc1,-8,3.8
CN(C)c1cccc(C(=O)OCC(=O)c2ccc[nH]2)c1,12,-0.5
O=C(O)C1CSC(c2ccc(O)c([N+](=O)[O-])c2)N1 (stereo not given),-3,8.4
CC(C)n1c(=O)[nH]c(=O)n1C(C)C,-3,0.5
CCNc1ncnc2[nH]ncc12,3,1.2

# These rows are one share of the data. The share of hits here may be higher or lower than overall.
